Tgondii IFNg: T. gondii growth inhibition under IFN-gamma. Toxoplasma gondii growth in IFN-gamma-treated host cells; stronger effect = lower value; reference of the scale not given here. activity change, negative = inhibition, %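 (about 20 µM by stock and volumes)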. 69,000 tested, 3.8% active. AID 1259416;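 active means below -70%; inconclusive means fit judged invalid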;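 further: host cells are HeLa cells infected with Toxoplasma gondii; parasite growth read as luciferase light; one replicate is shown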
Active calls of the source: *; i = inactive; ? = inconclusive. Not all compounds are listed (hit frequency here may not be typical).

SMILES | Tgondii IFNg
CCCc1cc(C(=O)N2CCN(C)C3(CCN(C)CC3)C2)cs1 | -9.5
O=C(COc1cc(Cl)c(Cl)cc1Cl)OCC(=O)c1ccccc1 | 4.1
Cc1nn(C)cc1S(=O)(=O)Nc1cccc(-c2ccc(F)cc2)c1 | 22.0
COc1ccc(S(=O)(=O)CCNCc2cc(Cl)c3c(c2)OCCCO3)cc1 | -45.9
S=C(NCc1ccco1)N/N=C1\CSCc2ccccc21 | 52.6
COCCNC(=O)CN1C(=O)CCc2cc(S(=O)(=O)N3CCC(C)CC3)ccc21 | 27.6
c1coc(CSCc2ccc3nonc3c2)c1 | 14.1
CCCc1ccc(CN2CCN(Cc3cccc(F)c3)CC2)o1 | -13.4
CCn1c(C)nnc1SCCNc1cc(OC)ncn1 | 7.6
O=C(C1CCCCC1)N1[C@H](CO)[C@H]2c3ccccc3N(S(=O)(=O)c3ccccc3)C[C@H]21 | -19.2
CC(C)CN1C(=O)CCc2cc(NS(=O)(=O)c3ccccc3)ccc21 | -50.2
CO[C@H](CN(C)S(=O)(=O)c1ccc(C)cc1)[C@@H](C)CN(C(=O)Nc1ccccc1F)[C@@H](C)CO | 2.9
CC(C)C(=O)NC1CC2(CCN(Cc3ccco3)CC2)Oc2ccccc21 (stereo not drawn) | -68.4
CC(C)CCN1C[C@H]2[C@H](C(=O)NCC(C)C)CCS(=O)(=O)[C@H]2C1 | 7.9
CCc1cnc(N2CCC(N(C)Cc3cccnc3)CC2C(=O)O)nc1 (stereo not drawn) | 1.6
c1ccc(CCN=c2sc3nc4ccccc4nc3n2CCc2ccccc2)cc1 | 49.6
Cn1nc(-c2ccccc2)c2c1C[C@H]1CN(Cc3nccs3)C[C@H]21 | 1.0
CCN(CC)C(=O)Oc1ccnc2cc(Cl)ccc12 | -40.1
CN(C)CC1(O)CCN(C(=O)c2ccc(-c3ccn[nH]3)cc2)C1 (stereo not drawn) | -8.3
CCOc1ccc(CC(=O)NCCc2csc(-c3ccccc3)n2)cc1 | i
COc1ccccc1N1CCN(C(=S)c2ccccc2OC(F)(F)F)CC1 | -27.5
Cc1ccc2c(c1)C(=O)NC1(CCC(=O)N(CC(=O)Nc3nccs3)CC1)O2 (stereo not drawn) | 13.3
CN1CC2(CCCN(Cc3noc(C(C)(C)C)n3)CC2)OC1=O (stereo not drawn) | -52.3
CN(Cc1ccc(F)cc1)c1ccc2ccc(C(=O)NCC(C)(C)CO)cn12 | 1.6
CN1CCN(c2c3c(nc4ccccc24)C2(C)CCC3C2(C)C)CC1 (stereo not drawn) | -26.6
CC(C)CCCC1CN(C(=O)c2ccc3[nH]c(=O)c(=O)[nH]c3c2)CCO1 (stereo not drawn) | 4.9
c1nc2ccc(-c3ccc4c(c3)OCO4)cc2[nH]1 | 8.9
Cc1ccc(S(=O)(=O)N(C)c2cncc(C(=O)NCc3ccccc3)c2)cc1 | 7.5
CC(C)NC(=O)CC1CC2(CCN(C(=O)CC3CC3)CC2)Oc2ccccc21 (stereo not drawn) | -23.1
C[C@@H]1CN([C@H](C)CO)C(=O)CCCn2nncc2CO[C@H]1CN(C)Cc1ccc2cccnc2c1 | -28.2

Entries shown so far containing a furan ring, fused or not (4):
SMILES | Tgondii IFNg
S=C(NCc1ccco1)N/N=C1\CSCc2ccccc21 | 52.6
c1coc(CSCc2ccc3nonc3c2)c1 | 14.1
CCCc1ccc(CN2CCN(Cc3cccc(F)c3)CC2)o1 | -13.4
CC(C)C(=O)NC1CC2(CCN(Cc3ccco3)CC2)Oc2ccccc21 (stereo not drawn) | -68.4

(continued)
SMILES | Tgondii IFNg
CCOC(=O)c1ccc(NC(=O)Cn2c(=O)cc(-c3nc(C)no3)c3ccccc32)cc1 | -12.1
O=S(=O)(Nc1cc(Sc2ncn[nH]2)c(O)c2ccccc12)c1cccs1 | -98.3*
O=C(c1ccn(-c2ccc3ccc(-c4cccc(F)c4)cn23)n1)N1CCCO1 | 14.0
O=C(O)c1cc(Br)c(Br)s1 | -9.0
NC(=O)C1(N2CCCCC2)CCN(C(=O)c2cc3ccc4cccnc4c3[nH]2)CC1 | 8.0
O=c1[nH]c2ccc(S(=O)(=O)N3CCCC(c4nc5ccccc5[nH]4)C3)cc2s1 (stereo not drawn) | 23.8
COCC(=O)N1CCC2O[C@H](COCc3csc(C)n3)CCC21 (stereo partly drawn) | -5.2
COc1ccccc1NC(=O)N1C[C@@H](O)COC[C@@H]2O[C@@H](CC(=O)N3CCC(Cc4ccccc4)CC3)CC[C@H]21 | -28.4
CC(=O)NC(CCCNC(=S)NC1CCCCC1)C(=O)O (stereo not drawn) | 5.3
CCCc1cc(=O)[nH]c(SCc2ccc(C(=O)Oc3ccc(F)cc3F)cc2)n1 | -46.0
O=C(c1ccc(F)c(F)c1)N1CCn2nnc(COc3ccccn3)c2C1 | 1.1
CCNC1CCc2c(c(C(=O)NC)nn2Cc2ccccc2)C1 (stereo not drawn) | 4.5
CCCCC(=O)Nc1ccc(-c2nc(-c3cc(C)ccc3C)co2)cc1 | -18.8
CCCN1C(=O)C2(NCCc3c2[nH]c2ccc(Cl)cc32)c2ccccc21 (stereo not drawn) | 46.0
Cc1c(Cl)cccc1NC(=S)NCc1cccnc1 | 17.9
COc1ccc2c3c([nH]c2c1)[C@H](CO)N(C(=O)NC1CCCC1)CC31CN(C(=O)Nc2cccc(F)c2)C1 | i
Cc1nc(-c2ccc(F)cc2)sc1-c1ccc(SCC#N)nn1 | 105.7
Cn1cc(C(CNC(=O)Nc2cccc(F)c2)c2cccnc2)c2ccccc21 (stereo not drawn) | 27.0
O=C(CCC1Nc2c3ccccc3nc(=S)n2C1=O)N1CCN(c2cccc(Cl)c2)CC1 (stereo not drawn) | -8.6
CC1=C(C(=O)Nc2cc(Cl)ccc2C)C2(CCN(Cc3ccccc3)CC2)OC1=O | -25.3
COc1ccc(N(Cc2nc(-c3cccc(Cl)c3)oc2C)S(=O)(=O)c2cccs2)cc1 | -47.5
COc1ccccc1NC(=O)c1c(O)c2cccnc2n(-c2ccccc2)c1=O | -46.9
CCCc1ccc(S(=O)(=O)Nc2ccc3c(c2)CCC(=O)N3CCOC)cc1 | -48.2
COC(=O)CN1C(c2ccccc2)=Nc2ccc(Br)cc2C1c1ccccc1 (stereo not drawn) | -37.6
C[C@H](CO)N1C[C@H](C)[C@@H](CN(C)Cc2ccc(C(=O)O)cc2)Oc2ccc(NC(=O)CCN3CCOCC3)cc2CC1=O | 13.8
CCC(=O)Nc1cccc(OCC(=O)N(C)C(C)c2nccs2)c1 (stereo not drawn) | 18.1
O=C(C[C@H]1CC[C@@H]2[C@H](COC[C@@H](O)CN2Cc2cc(F)ccc2F)O1)NCc1ccc(Oc2ccccc2)cc1 | -30.5
CCCN(Cc1cccnc1)Cc1c(C)nn(C)c1Cl | 0.1
C[C@H](CO)N1C[C@H](C)[C@H](CN(C)S(C)(=O)=O)Oc2ncc(-c3ccc(F)cc3)cc2C1=O | 228.4
CCN1Cc2ccccc2CC1C(=O)NCc1nncn1C1CCCCC1 (stereo not drawn) | 2.8
Cc1oc2cc(O)cc(O)c2c(=O)c1-c1ccccc1 | 261.2
CO[C@H]1CC[C@H]2CCOc3c(C#N)cccc3C(=O)N(C)C[C@H](c3ccccc3)CC(=O)N(C)C[C@H]1O2 | -25.2
Cc1occc1C(=O)N1CCC2(CCC2NC(=O)c2ccn(C)c2)CC1 (stereo not drawn) | -69.8
COc1ccc(/C=C/C(=O)N2CCCC(c3nc(C)ncc3Cc3ccccc3)C2)cc1 (stereo not drawn) | -5.0
COCCN(C)C(=O)c1cc(-c2ccn(-c3ccc(OC)cc3)n2)n2ccccc12 | -29.7
CCN1CCC2(CN(c3ncccn3)CC23CCN(Cc2ccccn2)CC3)C1=O (stereo not drawn) | -34.9
COc1ccc(Br)c(C(=O)ONC(=O)c2ccc(Cl)c(Cl)c2)c1 | 83.0
CCn1c(CCNc2ccccc2)n[nH]c1=O | 3.1
COc1ccc2c(c1)NC1(CCN(S(=O)(=O)c3cc(F)ccc3C)CC1)c1cccn1-2 | 9.5
CN1C(=O)c2cc(NC(=O)c3ccno3)ccc2OC[C@H]2O[C@@H](CC(=O)Nc3ccccc3)CC[C@@H]21 | -4.8
CCOC(=O)C1CCN(S(=O)(=O)N(C)C)CC1 | -7.2
COc1cccc(C(=O)Nc2ccc3c(c2)C(=O)N(C)[C@@H]2CC[C@@H](CC(=O)NCc4ccc(F)cc4)O[C@H]2CO3)c1 | -2.0
Cc1n[nH]c(C)c1CCc1n[nH]c(=O)n1-c1cc(F)ccc1F | 5.0
O=C(CN1CCC(O)(Cn2ncc3ccccc32)CC1)c1cccn1-c1ccccc1F | 13.9
COc1ccc(-c2nnc(-c3nc(Nc4ccc(NC(C)=O)cc4)c4ccccc4n3)o2)cc1 | 373.0
COC(=O)c1cc(C#N)c(C)nc1Sc1nccn1-c1cc(Cl)ccc1Cl | -4.4
O=C(c1cccs1)c1cnc2ccccn2c1=O | -57.0
Cn1cc(CN2CCC3(CC2)CN(C(=O)c2cccnc2)CCO3)cn1 | 1.0
CN(C)CCNC(=O)C1CN(Cc2nccs2)Cc2ccnn2C1 (stereo not drawn) | -5.6
CCC(CNC1CCN(C(=O)C(C)C)CC1)N1CCOCC1 (stereo not drawn) | -20.0
Cc1cc(C)c(NC(=O)C(=O)NCCc2sc(-c3ccccc3)nc2C)c(C)c1 | -69.4
COc1cc2c(cc1OC)C(C)N(C(=O)c1nn(-c3ccccc3)nc1C)CC2 (stereo not drawn) | -69.5
N#C[C@@H]1[C@@H](c2ccccc2C2=CCCCC2)[C@@H](CO)N1S(=O)(=O)c1ccccc1 | -31.1
CCN(CC)CC(=O)Oc1ccc(NC(C)=O)cc1 | -3.4
COc1ccc(CN(C)C[C@H]2OCCCC[C@@H](C)Oc3ccc(NC(=O)C4CCCCC4)cc3C(=O)N([C@H](C)CO)C[C@H]2C)cc1 | 38.9
Cc1cc(C)c(NC(=S)NN=C2CCCCCC2)c(C)c1 | 77.0
Cc1ccc(C)c(NC(=O)N2CCC3(CC2)Nc2cc(F)ccc2-n2cccc23)c1 | -50.0
O=C(COc1ccccc1)N1CCc2c([nH]c3ccccc23)C1c1cccnc1 (stereo not drawn) | i
CCN(C/C=C/c1ccccc1)C(=O)c1cnn2cc(CCO)cnc12 | -2.6
COc1cc(Cl)cc(CN2CCCC(C(=O)N3CCCC3)C2)c1OC (stereo not drawn) | 6.1

Later entries:
SMILES | Tgondii IFNg
Fc1cccc(CN2CCN(Cc3cn[nH]c3C3CCCCC3)CC2)c1 | -1.9
CCC(=O)N1[C@@H]2CN(C(=O)Nc3ccc(Cl)cc3)c3ccccc3[C@@H]2[C@@H]1CO | 22.9
CC(=O)c1c(N)nc(C)nc1-c1ccccc1 | 16.0
C[C@@H]1CN([C@H](C)CO)C(=O)CCCn2cc(nn2)CO[C@@H]1CN(C)S(=O)(=O)c1cccc(C#N)c1 | 46.6
CCc1cc2ccccc2nc1SCC(=O)c1cccs1 | -35.8
Cc1cc(C)c(S(=O)(=O)N2CCC3(CC2)NCCN=C3NCc2cc(F)cc(F)c2)cc1C | -29.8
CC(C)c1nc(Cn2ccnc2-c2ccncc2)no1 | 1.7
Cc1noc(C)c1CN1CCCC(c2nn(C)c(=O)n2-c2ccccc2)C1 (stereo not drawn) | -47.9
CNC(=O)c1cc(=O)n(CC(=O)Nc2cccc(C)c2C)c2ccccc12 | 13.3
CN(CCOc1ccc(F)cc1)C(=O)c1cc(-c2cnn(C)c2)nc2ccccc12 | 1.9
CC1N(c2cccnc2)C(=O)COC12CCN(Cc1ccoc1)CC2 (stereo not drawn) | 73.4
Cc1cn(CCC(=O)Nc2nn(C)c3cccc(F)c23)c2ccccc12 | 37.7
O=c1oc2ccc(Br)cc2cc1-c1csc(-c2ccccc2)n1 | 9.7
O=S(=O)(c1ccccc1)N1CCCCN2[C@H](CO)[C@H](c3ccc(C#CC4CCCC4)cc3)[C@H]2C1 | -56.5
COc1ccc(Cc2nc(-c3ccc(Br)cc3)no2)cc1 | 7.2
O=S(=O)(c1ccc2ccccc2c1)N1CCN(C2Cc3ccccc3C2)CC1 | 5.5
Cc1ccccc1S(=O)(=O)N1CC[C@@H]2[C@H](CO)Nc3ccc(-c4ccc(F)cc4)cc3[C@@H]21 | -62.3
CC(C)(C)[S@@](=O)N1Cc2cc(C(=O)NCCc3ccncc3)nc(-c3cccc(-c4cccc(C#N)c4)c3)c2[C@H]1CCO | 1.3
Cc1ccc(C(=O)C2CCOC(C)(C)C2)cc1 (stereo not drawn) | -11.2
O=C(c1nsc(Cl)c1Cl)N1C[C@H]2Cc3cnc(N4CCCC4)nc3[C@H]2C1 | -36.6
Cc1coc2cc3oc(=O)c(CCC(=O)O)c(C)c3cc12 | -16.9
COCC(NC(=O)c1sc(C)nc1-c1ccccc1)c1ccnn1C (stereo not drawn) | ?
CCC(=O)N1c2ccccc2-n2cccc2C12CCNCC2 | 335.6
Cc1ncsc1Cn1nc(C2CCNCC2)n(Cc2ccccc2)c1=O | -7.0
Cc1cc(C(=O)Nc2cccc3c2O[C@H](CN(C)C)[C@H](C)CN([C@H](C)CO)C3=O)n(C)n1 | 6.5

Laid out differently: results already given.
O=C(c1nsc(Cl)c1Cl)N1C[C@H]2Cc3cnc(N4CCCC4)nc3[C@H]2C1
  Tgondii IFNg = -36.6
Cc1coc2cc3oc(=O)c(CCC(=O)O)c(C)c3cc12
  Tgondii IFNg = -16.9
